Sa growth 42C – inhibitors of Staphylococcus aureus growth at 42 °C | S. aureus RN4220 growth, OD600, 20 h; hits give low values | relative growth, % (no concentration beside the values) | hit rate 0.53% among 170,000;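 active = growth at 42 °C up to 50% and 20 or more points under that at 30 °C, or under 10% at both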;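 note: 300 nL library stock went into each well; scaled to the means of positive and negative controls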
GIV-Gai inh – inhibitors of GIV GBA-motif binding to rat Galpha-i3; P08753; Galpha-i3/FITC-GIV peptide fluorescence polarization, 90 min; hits give low values; scaled: aluminum fluoride 0%, vehicle 100%; percent of control (FP), % (test concentration not listed); AID 1224905; hit rate 0.42% among 210,000;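 active = replicate mean at 85% of control or lower, very high polarization wells dropped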;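 note: wells of about 15 µL received 100 nL stock; the first replicate is given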
Target sequence (P08753 whole entry, looked up): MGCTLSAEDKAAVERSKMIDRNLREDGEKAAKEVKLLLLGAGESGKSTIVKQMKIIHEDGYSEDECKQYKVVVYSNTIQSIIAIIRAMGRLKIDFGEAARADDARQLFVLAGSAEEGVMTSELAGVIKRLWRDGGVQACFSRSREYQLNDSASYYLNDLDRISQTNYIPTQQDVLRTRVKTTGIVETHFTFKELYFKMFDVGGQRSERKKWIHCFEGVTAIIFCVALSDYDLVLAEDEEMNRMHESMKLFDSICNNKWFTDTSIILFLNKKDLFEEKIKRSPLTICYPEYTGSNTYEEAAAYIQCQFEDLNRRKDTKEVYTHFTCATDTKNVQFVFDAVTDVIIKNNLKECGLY
HCMV UL50-53 inh – inhibitors of HCMV UL50-UL53 nuclear egress complex interaction; inhibition, % (concentration not given with the values); HTRF UL50-UL53 interaction, normalized percent inhibition; hit rate 0.15% among 190,000; AID 1918969;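 active = both replicates at 50% or more, plus weaker picks with an unusually low signal ratio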;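 note: stock transfer was 100 nL into about 20 µL; 0% = negative control wells and 100% = wells with untagged competitor protein; inactives centre near -12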
Sa growth 42C second temp – second read-out of Sa growth 42C, no call of its own (marks repeat the call); relative growth, %; measured here: growth at 30 °C;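 optical density after 20 h as mean of two plates; 100% = untreated growth and lower means inhibition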
* = called active by the depositor; · = no result given; & = joins results of further samples. Not a hit list, and some 0.85% of all compounds hit somewhere here.

smiles	HCMV UL50-53 inh	Sa growth 42C second temp	Sa growth 42C	GIV-Gai inh
CCCn1c2ccccc2c2cnn(CC(=O)OC)c(=O)c21	-15	78	92	101
CCN(Cc1ccc(OCc2cccs2)c(OC)c1)C(=O)c1cc(C)oc1C	-13	41	68	·
NCCSc1nc2ccccc2[nH]1	10	97	93	·
O=C(Cc1ccccc1F)Oc1ccc(-c2nnco2)cc1	-12	93	98	·
Cc1ccc(NC(=O)CCn2cnc3cc(S(=O)(=O)N(C)C)ccc32)cc1C	-34	·	·	108
Fc1ccccc1-c1ncc(-c2ccc(Br)cc2)o1	·	72	68	97
Cc1cc(N2CCCCC2C)n2nc(-c3ccccc3C)nc2n1 (stereo not given)	-2	·	·	100
COC(=O)c1c(C)oc2cc(C)c(NS(=O)(=O)c3cccs3)cc12	-1	95	85	·
COc1ccc(Cn2c(=O)[nH]c3cc(C(=O)N4CCN(c5ccccc5)CC4)ccc3c2=O)cc1	16	87	94	104
O=S(=O)(Cc1ccc(-c2nc(-c3cccs3)no2)o1)c1ccc(Cl)s1	-18	·	·	155
Cc1ccc(-c2n[nH]c(=O)c3ccccc23)cc1S(=O)(=O)Nn1cnnc1	-12	·	·	106
COc1ccccc1C(=O)OCC(=O)C(C)(C)C	-26	85	101	·
CC(C)NC(=O)CC1OC(=O)c2ccccc21 (stereo not given)	-27	86	100	99
CCN(CC)c1ccc(/C=N/NC=O)c(O)c1	-35	90	93	·
Cc1ccc(-n2ncc(C(=O)N3CCN(c4ccccc4F)CC3)c2C2CCN(C(=O)OC(C)(C)C)CC2)cc1C	·	91	96	108
Cc1ccc(-c2c(C(=O)NCCc3ccccc3)oc(=O)c3ccccc23)cc1	-24	88	106	103
Fc1ccc(-c2nc3c4c(-c5ccccc5)c(-c5ccccc5)oc4ncn3n2)cc1	12	98	112	96
COc1ccc(Cl)cc1NC(=O)c1cc(-c2ccco2)on1	-3	91	97	102
CCCCNC(=O)C1=Cc2ccc(C)cc2OC=C1	-44	·	·	103
Cn1c(=O)n(C)c2cc(Sc3ccccc3)c(NS(C)(=O)=O)cc21	-34	·	·	105
Cn1c(=O)n(C)c2cc(NS(=O)(=O)c3ccccc3Br)ccc21	-31	·	·	111
OCCn1c(-c2ccccc2)cn2c3ccccc3nc12	-5	67	88	·
CNc1ccc(-c2nc(-c3ccco3)no2)cc1[N+](=O)[O-]	-39	87	102	93
COc1ccc(N2CCN(CCCNC(=O)c3nnc(Cc4ccccc4Cl)o3)CC2)cc1	-10	83	113	103
CC1CC(C)CN(C(=O)c2cccc3c2-c2ccccc2C3=O)C1 (stereo not given)	-67	81	92	102
C(=Nc1ccc(N2CCOCC2)cc1)c1ccc(Sc2nc3ccccc3[nH]2)o1	-44	96	103	·
Cc1ccc(C(c2sc3nc(-c4ccco4)nn3c2O)N2CCCC2)cc1 (stereo not given)	·	89	133	99
CCc1nnc(NC(=O)c2ccc(S(=O)(=O)N(CC)CC)cc2)s1	5	87	100	99
Cc1ccc2c(c1)c(=O)n(CCCOC(C)C)c1nnc(SCc3ccc(F)cc3)n21	-16	·	·	105
CCCN(Cc1nnc(-c2ccco2)o1)C(=O)CN1C(=O)COc2ccccc21	-10	88	96	·
S=C(N/N=C/c1ccco1)NC1CC2CCC1C2 (stereo not given)	-9	83	91	102
CCOC(=O)CCn1cc(F)c(=O)[nH]c1=O	·	77	95	99
CCN(CC)S(=O)(=O)c1ccc2c(c1)N(CC(=O)NCc1ccccc1)C(=O)C1CCCCN21 (stereo not given)	·	87	107	111
NS(=O)(=O)c1ccc(CCNC(=O)C2=Cc3sc4c(c3CS2)CCCC4)cc1	-38	·	·	100
C/C(=N\S(=O)(=O)c1ccc(C)cc1)N1CCCN(S(=O)(=O)c2ccc(C)cc2)C1C(C)C (stereo not given)	·	92	119	103
Cc1ccccc1NC(=O)c1c(NC(=O)c2ccncc2)sc2c1CCC(C(C)(C)C)C2 (stereo not given)	31	100	97	104
CC1CN(C2CCCCC2)c2nc3c(c(=O)n(CC(=O)O)c(=O)n3C)n2C1 (stereo not given)	-2	·	·	95
CCCC1NC(=O)NC(C)=C1C(=O)OCC (stereo not given)	-22	87	91	105
CNC(=O)C1CCC(Cn2c(=O)c3sccc3n(CC(=O)Nc3ccc(C)cc3C)c2=O)CC1 (stereo not given)	·	72	95	97
CC1=C(C(=O)Nc2ccccc2C(=O)NCCc2c[nH]c3ccccc23)SCCO1	-17	·	·	102
Cc1ccc(S(=O)(=O)c2cn(C)c3cc(N4CCN(c5ccccc5)CC4)c(F)cc3c2=O)cc1	·	91	91	106
Cc1cc(C)n(-c2ccc(Cl)c(C(=O)OCc3ccccc3)c2)n1	5	83	60	·
Cc1ccc(NC(=O)CC(C)S(=O)(=O)c2ccc3c(c2)NC(=O)CO3)cc1C (stereo not given)	·	91	117	109
O=C(Nc1ncc(Cc2ccccc2)s1)C1CCCO1 (stereo not given)	12	102	91	108
O=C(O)CCP(=O)(O)CN1CCCCCC1	·	81	101	101
CNC(=S)NNc1ncc(C(F)(F)F)cc1Cl	-14	93	95	·
CC(c1ccccc1)C1CC(=O)N(c2ccc(OC(F)(F)F)cc2)C1=O (stereo not given)	-5	93	102	·
O=C(CN1C(=O)NC2NC(=O)NC21)N/N=C/c1ccccc1O (stereo not given)	-28	82	87	99
COC(=O)COc1ccc(C)cc1-n1nc2ccccc2n1	-12	90	93	93
CC1=C(C(=O)NC2CCCCCC2)C2(CCCCCC2)OC1=O	-25	85	99	99
O=C(O)C1CSC2(CCCCC2)N1 (stereo not given)	-2	88	112	·
Cc1ccc(S(=O)(=O)c2ccc(/C=C/c3ccco3)cc2)cc1	-17	77	81	·
Cc1cccc(N2CCN(C(=O)Cn3c(C)c4cnn(-c5ccccc5)c(=O)c4c3C)CC2)c1C	-6	86	109	108
Clc1ccccc1OCc1nn2c(CSc3ccccc3)nnc2s1	-19	·	·	117
CC(C)(C)c1ccc(-c2n[nH]c(=S)n2N=Cc2ccccn2)cc1	-14	70	81	·
COc1c2ccoc2nc2c(OC)c(OC3OC(C)C(O)C(O)C3O)ccc12 (stereo not given)	-48	85	90	111
CC(C)=C1C2C=CC1C1C(=O)N(CCO)C(=O)C21 (stereo not given)	-25	85	91	103
Cc1onc(-c2ccccc2Cl)c1NC(=O)NCCc1ccncc1	-14	75	92	109
CCOc1ccc(-c2nonc2NC(=O)COc2ccc(Br)cc2)cc1C	9	·	·	108
CCc1ccc(NC(=O)c2cc3c(=O)oc4ccc(C)cc4c3s2)cc1	·	87	90	101

Additional structures.
smiles	HCMV UL50-53 inh	Sa growth 42C second temp	Sa growth 42C	GIV-Gai inh
Cc1ccc(C)c(CSc2nc3ncccc3[nH]2)c1	·	67	75	106
c1csc(-c2nc(N3CCN(Cc4ccc5c(c4)OCO5)CC3)c3ccccc3n2)c1	4	116	80	·
COc1ccc(S(=O)(=O)Nc2cc(C(=O)O)cnc2N2CCCC2)cc1	-42	·	·	116
CCOc1ccc(NC(=O)C(C)N(c2ccc(OCC)cc2)S(C)(=O)=O)cc1 (stereo not given)	-31	87	94	101
COC(=O)c1c(C)c(C)[nH]c(=O)c1C#N	-40	85	100	·
CCOC(=O)c1c(CC(C)C)csc1N	-23	96	91	·
COc1ccc(C(C)C)cc1S(=O)(=O)NCCc1c(C)[nH]c2c(Cl)cccc12	13	85	104	114
Cc1nc2ccccn2c1-c1ccn[nH]1	3	97	98	96
CCOc1cc(C2N(C)C(=O)c3ccccc3N2C)ccc1O (stereo not given)	-30	83	87	103
CC(=O)Nc1ccc(NCc2nnc3n2CCCCC3)cc1	·	87	80	96
O=C1Nc2ccccc2C1Cc1ccc(Br)cc1 (stereo not given)	-3&-1	96	104	100&109
O=C(O)CCCc1cccs1	-33	93	99	·
CN(C)C(=O)CSc1nnc(-c2ccc(O)cc2)o1	-26	83	105	98
CC1(C)CC(=O)c2c(C(=O)O)coc2C1	·	87	110	102
COc1ccc(-c2nnc3sc(-c4c[nH]c5ccccc45)nn23)cc1	-4	·	·	105

Sorted by the number under Sa growth 42C (largest number first): some entries from above.
SMILES	Sa growth 42C second temp	Sa growth 42C	GIV-Gai inh
O=C1Nc2ccccc2C1Cc1ccc(Br)cc1 (stereo not given)	96	104	100&109
CCOc1ccc(NC(=O)C(C)N(c2ccc(OCC)cc2)S(C)(=O)=O)cc1 (stereo not given)	87	94	101
CCOC(=O)c1c(CC(C)C)csc1N	96	91	·
CCOc1cc(C2N(C)C(=O)c3ccccc3N2C)ccc1O (stereo not given)	83	87	103
c1csc(-c2nc(N3CCN(Cc4ccc5c(c4)OCO5)CC3)c3ccccc3n2)c1	116	80	·

Later entries.
smiles	HCMV UL50-53 inh	Sa growth 42C second temp	Sa growth 42C	GIV-Gai inh
O=c1nc2c3ccccc3ncn2[nH]1	-5	94	82	·
Nc1c(C(=O)NC2CCCC2)c2nc3ccccc3nc2n1/N=C/c1cccnc1	-6	82	99	108
COc1ccc(/C=C(/C#N)c2nc(-c3ccc(-c4ccccc4)cc3)cs2)cc1	-41	93	106	108
O=C1c2ccccc2-c2n[nH]c(=O)c3ccc(N4CCOCC4)c1c23	·	100	93	101
CCC(=O)N1N=C(c2ccc(NS(C)(=O)=O)cc2)CC1c1ccccc1 (stereo not given)	-44	75	93	99
Cn1c(C(=O)N(Cc2ccccc2)Cc2cccs2)cc2sccc21	20	102	97	103
CCCCn1c(CCC(=O)Nc2ccc(NC(C)=O)cc2)nc2cc(S(=O)(=O)N(C)C)ccc21	-3	101	110	·
Cc1cc(I)ccc1NC(=O)c1ccc2c(c1)SC1=NS(=O)(=O)CCN12	6	106	110	·
O=C(c1nc(-c2ccccc2)n(-c2cccc(Cl)c2)n1)N1CCOCC1	-10	·	·	100
CC(=O)N1CN(C(C)=O)C(O)C1O (stereo not given)	4	101	113	103
CCSc1nnc(-c2sc3ccccc3c2Cl)o1	6	90	102	·
Cc1cccc(C)c1NC(=O)C(c1ccc(N(C)C)cc1)N1C(=O)CC1c1ccco1 (stereo not given)	7	90	91	·
CC(C)(C)C(=O)COC(=O)Cn1nc(C(N)=O)c2ccccc2c1=O	-40	88	86	·
CCCOc1ccc(-c2ccc(C(=O)O)cc2)cc1	-7	106	139	106
Cc1ccccc1OC(=O)c1nc(SCc2ccccc2F)ncc1Cl	15	95	98	96
O=S1(=O)CCC(S(=O)(=O)NC2CCCCC2)C1 (stereo not given)	11	·	·	100
CCN(CC)C(=O)Cn1c(=O)n(Cc2ccc(F)cc2)c(=O)c2c1c(C)nn2CC	11	·	·	104
Cc1csc(=O)n1CC(=O)Nc1ccccc1	-4	94	99	·
CNC(=O)CSc1ncn[nH]1	-4	·	·	105
CC(Sc1nc(=O)cc(N)n1-c1ccccc1)C(=O)Nc1ccccc1 (stereo not given)	3	94	102	107
CC1CCCCN1C(=O)c1cccs1 (stereo not given)	-2	91	97	·
CCOC(=O)c1ccc(NC(=O)NCc2noc3ccc(C)cc23)cc1	-27	94	98	98
COc1ccc(Cl)cc1NC(=O)CN1CCN(S(=O)(=O)N(C)C)CC1	-3	101	116	99
COc1ccc(Cl)cc1Nc1ncnc2c1c(-c1ccccc1)cn2-c1ccccc1	·	103	102	109
CC(C)Cn1c(-c2ccc(Cl)cc2)cnc1SCC(=O)N1CCCC1	2	60	101	100
Cc1ccc(-n2ncc3c(NCCc4ccccc4)ncnc32)cc1Cl	·	94	121	105
Cc1c(C(=O)N(C)Cc2ccccc2)sc2ncn(CC(=O)N3CC(C)CC(C)C3)c(=O)c12 (stereo not given)	·	102	102	105
N#CCCN(CCc1ccccc1)S(=O)(=O)c1cccc2nsnc12	-47	·	·	105
Cc1ccc(NC(=O)C2CCN(Cc3cnn(-c4ccccc4)c3-n3cccc3)CC2)cc1	-27	88	111	101
O=C(CO/N=C/c1ccco1)Nc1cccc(I)c1	-15	91	105	·
O=C1COc2c1c1c(c3oc(=O)ccc23)C(=O)CO1	-20	62	58	96
CC1CCCCC1NC(=O)COC(=O)COc1ccccc1F (stereo not given)	-29	85	92	·
CCn1c(C)c2c(C)nn3cc(C)cc3c2c1C	9	62	77	101
COc1ccc(-c2[nH]c(-c3cccc(OC)c3)nc2SCC(=O)Nc2ccc3c(c2)OCO3)cc1	-16	70	110	104
COc1ccc(CCNC(=O)CCCn2c(=O)c3ccccc3n(Cc3ccccc3)c2=O)cc1OC	5	90	93	105
CCN1CCN(C(=S)Nc2ccccc2)CC1	7	92	97	95
CCCCS(=O)(=O)NC1CCCCCCC1	-29	105	109	106
O/C(=C\c1ccc2ccccc2n1)c1ccc(O)cc1O	-36	94	120	·
CCCn1c2ccccc2c2cnn(CC(=O)NCCc3ccccc3)c(=O)c21	·	88	96	102

Fetched by structure from the entries so far (two):
smiles	HCMV UL50-53 inh	Sa growth 42C second temp	Sa growth 42C	GIV-Gai inh
COc1ccc(CCNC(=O)CCCn2c(=O)c3ccccc3n(Cc3ccccc3)c2=O)cc1OC	5	90	93	105
CCCCS(=O)(=O)NC1CCCCCCC1	-29	105	109	106

Bioassay records: PubChem BioAssay, ICCB-Longwood Screening Facility, Harvard Medical School
